HSV augment: enhancers of HSV replication in host cells, fold increase, host cell viability; HSV replication augmentation in cells; maximum fold increase; 0.005% of 220,000 active;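 active = peak rise of 1.5-fold or more in the series; tested in PC3 cells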;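 also: first round at 10 µM; read as green reporter fluorescence; hits show the peak of a series up to 25 µM; 1 = signal of infected wells without compound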
RGS16-Gao HTS: modulators of RGS16 binding to Galphao, primary screen, biochemical, human proteins, multiplexed bead flow cytometry; Regulator of G-protein signaling 16 (Homo sapiens) + Guanine nucleotide-binding protein …; binding response (% of control), % at 10 µM; bead-based flow cytometry RGS16-Galphao binding, fluorescence; actives lie on both sides; AID 1441, 2008; 0.38% of 220,000 active;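 active = below 25% or above 175%, edge rows of some plates excepted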;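 also: Galphao activated by GDP with aluminum fluoride before binding; 100% = wells without compound and 0% = beads without RGS; some results beyond the cut were filed as inactive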
Target sequence (O15492 whole entry, looked up): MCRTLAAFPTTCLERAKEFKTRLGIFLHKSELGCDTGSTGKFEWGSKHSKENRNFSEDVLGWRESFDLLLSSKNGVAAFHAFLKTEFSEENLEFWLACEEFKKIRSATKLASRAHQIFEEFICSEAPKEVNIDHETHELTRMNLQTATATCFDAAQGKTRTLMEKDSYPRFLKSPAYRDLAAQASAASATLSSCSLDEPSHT
Target sequence (P09471 whole entry, looked up): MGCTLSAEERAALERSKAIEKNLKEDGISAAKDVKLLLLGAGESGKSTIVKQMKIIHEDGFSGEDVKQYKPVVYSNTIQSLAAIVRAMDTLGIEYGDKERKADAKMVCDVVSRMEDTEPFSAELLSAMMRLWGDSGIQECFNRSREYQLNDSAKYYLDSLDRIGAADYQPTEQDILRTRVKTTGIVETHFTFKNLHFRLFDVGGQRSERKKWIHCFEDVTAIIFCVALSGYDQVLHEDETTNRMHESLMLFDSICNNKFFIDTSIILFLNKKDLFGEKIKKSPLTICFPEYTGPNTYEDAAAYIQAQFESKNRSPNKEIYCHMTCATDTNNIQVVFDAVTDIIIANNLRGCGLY
GALR2 ag: GALR2 receptor agonists, primary screen, cell-based; GALR2-expressing cells, agonist activation read-out; activation, %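 (tested at 5 µM)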; 0.48% of 140,000 active; AID 803, 2007;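 active = above mean plus 3 SD of all compounds, about 5% in these data, not always enough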;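 also: 0% = vehicle buffer wells and 100% = reference agonist at full effect; tested in CHO reporter cells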
Target sequence (O43603 whole entry, looked up): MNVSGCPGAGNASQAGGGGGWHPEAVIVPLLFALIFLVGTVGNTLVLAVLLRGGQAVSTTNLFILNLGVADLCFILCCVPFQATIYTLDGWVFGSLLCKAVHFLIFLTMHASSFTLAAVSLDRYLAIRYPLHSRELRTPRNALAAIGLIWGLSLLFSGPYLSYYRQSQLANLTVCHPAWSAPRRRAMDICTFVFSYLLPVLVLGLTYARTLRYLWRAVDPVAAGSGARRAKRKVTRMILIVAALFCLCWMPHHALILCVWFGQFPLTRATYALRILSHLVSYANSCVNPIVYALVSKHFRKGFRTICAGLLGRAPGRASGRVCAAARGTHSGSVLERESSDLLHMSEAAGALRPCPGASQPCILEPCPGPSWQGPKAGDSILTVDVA
PKD1 inh: inhibitors of human PKD1 kinase, biochemical, fluorescence polarization; PKD1 kinase fluorescence polarization assay; Serine/threonine-protein kinase D1 (Homo sapiens), Q15139; inhibition, %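 (about 10 µM by stock and volumes)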; 0.056% of 200,000 active;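 active = inhibition of 50% or more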;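 also: controls were vehicle for no effect and a reference inhibitor for full effect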
INS promoter inh: inhibitors of insulin promoter-driven GFP, primary screen, imaging, TRM-6 cells (human fetal islet line), eGFP reporter, cell count; reporter expression induced with tamoxifen; inhibition, % at 2 µM; AID 1273, 2008; 0.9% of 130,000 active;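 active = inhibition above the mean plus 3 SD, with well images judged a real hit on visual review, cut at about 60% in these data, passing the limit was not always enough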
INS promoter inh cell count: further read-out of INS promoter inh, marked with its call; normalized cell count, %; measured here: cell count, toxicity; reference of the scale not given here;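 cells exposed to compound for 48 h; stained nuclei by imaging scaled within each plate; lower means fewer cells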
HSV augment primary fold: further read-out of HSV augment, marked with its call; fold increase; compound at 10 µM; measured here: primary screen fold increase 10 uM; tested in PC3 cells;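 GFP signal in the first replicate; 1 = infected wells without compound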
An asterisk follows results filed as active; i = inactive; / = not tested or not shown; [ ] = another dose, or the depositor's remark.

SMILES	HSV augment	HSV augment primary fold	RGS16-Gao HTS	GALR2 ag	PKD1 inh	INS promoter inh	INS promoter inh cell count
COc1cccc(CNC(=O)CCC2CCCN(Cc3ccc4c(c3)CCO4)C2)c1 (configuration not stated)	i	0.97	110	/	/	/	/
COc1ccc(NC2=NCCC2)cc1	i	1	104	-1.8	1	42	45
COC(=O)c1ccc(NC2c3ncccc3C(=O)N2Cc2cccs2)cc1 (configuration not stated)	i	0.94	103	/	2	29	133
CCOc1ccccc1-n1c(COc2ccc(C)cc2)nnc1SCC(N)=O	i	1.1	103	-1.5	-5	/	/
Cn1nnnc1SCC(=O)c1c(N)n(C)c(=O)n(C)c1=O	i	0.9	96	-0.7	6	-50	162
CCN(CC)c1ccc(C(=O)OCc2c(C)noc2C)cc1	i	0.8	111	/	7	17	106
OCc1n[nH]c(CO)n1	i	0.94	95	-2.7	18	/	/
O=C(Nc1cc2nn(-c3ccccc3)nc2cc1Cl)c1ccco1	i	0.79	102	-0.2	-8	-27	110
O=C(CCCN1C(=O)c2cccc3cccc(c23)C1=O)N1CCN(c2ccccc2O)CC1	i	1	94	0.1	-19	-8	112
COc1cccc(CNc2ncn[nH]2)c1OCc1ccccc1F	i	0.97	96	/	0	-10	114
CCOC(=O)c1[nH]ncc1CN1CCCC(C(=O)c2ccc(OC)cc2C)C1 (configuration not stated)	i	1.1	88	/	2	/	/
COC(=O)Nc1nnc(Cc2ccc(OC)cc2)s1	i	1	76	-1.6	3	27	104
O=c1ccc2ccc(Oc3ccc([N+](=O)[O-])cc3[N+](=O)[O-])cc2o1	i	0.78	133	2.2	-8	-10	52
Cc1cccc(N(CC(=O)NC2CCCC2)C(=O)c2cc3cc4cccc(C)c4nc3s2)c1C	i	0.88	101	-0.1	-14	-17	93
CC(=O)Nc1c(NC(C)C)c2ccccc2oc1=O	i	0.76	99	-0.5	-3	/	/
O=C(NCc1ccc(N2CCCC2=O)cc1)c1cn(CCc2ccccc2)nn1	i	0.86	103	-1.5	-13	/	/
COc1ccc(C2/C(=C(\O)c3cc(C)ccc3C)C(=O)C(=O)N2CCN(C)C)cc1OC (configuration not stated)	i	0.94	99	-1.5	-4	-408	78
C=CCn1c(SC)nnc1-c1cccc([N+](=O)[O-])c1	i	0.77	98	0.0	-7	7	124
O=c1[nH]c(CSc2nnc(Cc3ccccc3)o2)nc2ccccc12	i	0.98	100	/	2	17	83
O=C(OCC(=O)N1CCCCC1)c1ccccc1SCC(=O)N1CCCCC1	i	1.1	103	/	0	-33	67
CN(CCCNC(=O)CN1C(=O)CC(C)(C)S(=O)(=O)c2ccccc21)C1CCCCC1	/	/	101	-1.7	-7	-61	98
COc1ccc(/C(C)=N/N=C2/NC(=O)CC(C(=O)O)S2)cc1 (configuration not stated)	i	1	104	-0.6	-8	/	/
CCC(CC)c1ncc[nH]1	i	0.8	97	/	/	/	/
CN1CCC(=NNC(=O)C(=O)NC2CCCC2)CC1	/	/	102	-0.7	-1	-3	156
Cn1ccnc1SCC(=O)Nc1ccc2nc(SCC(=O)NC3CC3)sc2c1	i	0.99	100	-1.9	-3	-7	137

Given with two lines to a compound: two of the compounds above
Values run as follows: HSV augment	HSV augment primary fold	RGS16-Gao HTS	GALR2 ag	PKD1 inh	INS promoter inh	INS promoter inh cell count
- COc1ccc(C2/C(=C(\O)c3cc(C)ccc3C)C(=O)C(=O)N2CCN(C)C)cc1OC (configuration not stated)
    i	0.94	99	-1.5	-4	-408	78
- C=CCn1c(SC)nnc1-c1cccc([N+](=O)[O-])c1
    i	0.77	98	0.0	-7	7	124

Remaining list, next part:
SMILES	HSV augment	HSV augment primary fold	RGS16-Gao HTS	GALR2 ag	PKD1 inh	INS promoter inh	INS promoter inh cell count
COc1ccc(N2CCN(C(=O)Cn3nnc(-c4cccs4)n3)CC2)cc1	i	1.3	100	-1.6	-8	-6	98
Cc1nnc(SCC(=O)N(C)C2CCCCC2)s1	i	1	58	/	-8	/	/
CSC1=NCCN1C(=O)C12CC3CC(CC(C3)C1)C2	i	0.87	88	/	1	55	66
O=C(c1ccco1)N1CCN(C(=O)C2CCN(S(=O)(=O)c3cccs3)CC2)CC1	i	0.87	102	-0.5	1	/	/
CCOC(=O)c1nn(-c2ccc(OC)cc2)c(=O)c2c(N)scc12	i	0.93	98	-5.5	-1	29	116
Nc1ccc2nc(SCc3ccccc3F)sc2c1	i	0.99	105	/	/	/	/
S=c1[nH]nc(-c2cccc(Cl)c2)n1/N=C/c1ccc(-c2ccccc2Br)o1	i	0.99	101	/	/	/	/
O=C(CSc1nc2ccccc2c(=O)n1CCCO)N1CCc2ccccc21	i	0.89	98	0.8	0	/	/
CC(=O)N1CN(S(=O)(=O)c2ccc(C)cc2)CC1C (configuration not stated)	i	0.96	38	-2.8	-1	-23	120
CCCCNC(=O)CSc1nc2n[nH]c(C)c2c(=N)n1-c1cccc(Cl)c1C	i	0.92	101	-2.5	-1	-21	73
Cc1cccc(CSc2ncc(CO)n2C)c1	i	1	97	-0.2	-5	-9	104
CCNC(=S)N1CCN(CC(=O)Nc2ccc(Br)cc2)CC1	i	1	114	-0.1	-6	/	/
C#CCSc1[nH]c(=O)cc(C)c1C#N	i	1.1	132	/	-7	25	122
CCOc1ccc(N2CC(C(=O)Nc3ccccc3F)CC2=O)cc1 (configuration not stated)	i	0.92	96	1.0	4	0	128
Cc1cc(NC(=O)Cn2c(C)nc3ccccc3c2=O)ccc1Br	i	0.86	103	-1.1	-6	-17	95
CCOC(=O)CC/C(C)=N\N=C1\SC(CC(=O)O)C(=O)N1c1ccccc1 (configuration not stated)	i	0.9	98	/	/	/	/
C=C(C)Cn1c(-c2cccs2)n[nH]c1=S	i	1.1	97	/	1	/	/
CC1=C([N+](=O)[O-])C(c2ccccc2C(F)(F)F)NC(=O)N1C (configuration not stated)	i	0.76	101	/	/	/	/
CN(C)C(=O)C[n+]1cccc(/C=N/O)c1	i	1.1	251*[activator]	-1.4	-5	42	136
Cc1ccc(S(=O)(=O)N(C)Cc2nc(-c3ccncc3)no2)cc1	i	0.89	102	-0.3	-4	8	194
COc1ccccc1NC(=O)N1c2ccccc2NC(=O)CC1C (configuration not stated)	i	1	98	/	/	/	/
N/C(=N\OC(=O)c1cccc2ccccc12)c1ccccn1	i	0.69	117	/	/	/	/
COc1ccc(-c2csc(NC(=O)CSc3nnc(Nc4ccccc4C)s3)n2)cc1	i	0.76	100	/	8	/	/
CCOC(=O)c1ccc(NC(=O)CSc2nc(C)cc(=O)[nH]2)cc1	i	0.88	100	-1.1	17	0	120
Cc1ccc(S(=O)(=O)N2CCOCC2)c(C)c1-n1cnnn1	i	0.82	98	-2.6	3	-81	76

One compound at a time (already shown). Order of screens: HSV augment, HSV augment primary fold, RGS16-Gao HTS, GALR2 ag, PKD1 inh, INS promoter inh, INS promoter inh cell count
Listed for `COc1ccccc1NC(=O)N1c2ccccc2NC(=O)CC1C` (configuration not stated) = i, 1, 98, /, /, /, /
Listed for `Cc1cccc(CSc2ncc(CO)n2C)c1` = i, 1, 97, -0.2, -5, -9, 104
Listed for `C=C(C)Cn1c(-c2cccs2)n[nH]c1=S` = i, 1.1, 97, /, 1, /, /
Listed for `N/C(=N\OC(=O)c1cccc2ccccc12)c1ccccn1` = i, 0.69, 117, /, /, /, /
Listed for `S=c1[nH]nc(-c2cccc(Cl)c2)n1/N=C/c1ccc(-c2ccccc2Br)o1` = i, 0.99, 101, /, /, /, /

Later entries:
SMILES	HSV augment	HSV augment primary fold	RGS16-Gao HTS	GALR2 ag	PKD1 inh	INS promoter inh	INS promoter inh cell count
Nc1nc(CSC(=S)N2CCOCC2)nc(Nc2ccc(F)cc2)n1	i	0.95	100	-0.4	1	/	/
O=C(COC(=O)c1cn(-c2ccccc2)nc1-c1cccnc1)NC1CC1	i	0.98	103	/	5	-8	84
O=c1oc2ccccc2n1CCc1ccccc1	i	0.84	97	-0.6	-7	-50	220
CC1CN=C(N(C(=O)Nc2ccccc2)c2ccc(S(=O)(=O)N3CCOCC3)cc2)S1 (configuration not stated)	i	0.98	100	-0.5	-5	29	102
CCOC(=O)N1CCN(CCC(=O)c2ccc(Cl)cc2)CC1	i	1.2	96	-0.2	-7	50	91
Cc1ccc(Nc2ncnc3sc(C)c(C)c23)cc1	i	0.98	110	-0.6	3	56	134
CCc1ccc(N2CC34C=CC(O3)C(C(=O)OC(C)C)C4C2=O)cc1 (configuration not stated)	i	1.1	102	0.3	-5	/	/
CC(C)Oc1cccc(C(=O)C2CCCN(Cc3cnc(N4CCCC4)s3)C2)c1 (configuration not stated)	i	0.91	222	/	4	-83	21
OCCNc1nc(N2CCN(Cc3ccccc3)CC2)nc2ccccc12	i	0.8	100	-1.6	-7	-24	103
Cc1ccc(C(=O)Nc2cccnc2)cc1S(=O)(=O)N1CCCCC1	i	0.95	96	/	2	/	/
O=C(CCC(=O)NNC(=O)COc1ccc(Br)cc1Br)NCc1ccccc1	i	1	110	/	1	53	103
CCOC(=O)c1ccc2c(c1)NC(=O)C(N1CCN(c3ccc(OC)cc3)CC1)S2 (configuration not stated)	i	0.61	104	-1.4	-6	/	/
NS(=O)(=O)c1ccc(CNC(=O)/C=C/c2ccc(Cl)c(Cl)c2)cc1	i	1	100	-0.9	-6	/	/
COc1cccc(OC)c1C(=O)Nc1cc(C)on1	/	/	99	0.1	-1	-42	90
COc1ccc(Cl)cc1C(=O)NCc1ccco1	i	0.97	100	/	/	/	/
OC1(Cc2ccn[nH]2)CCCCC1	i	0.89	107	-0.1	-8	/	/
CN(C)C=Nc1ncc2c([nH]c3ccccc32)c1C#N	/	/	102	-2.9	5	27	125
CN(Cc1ccccc1)S(=O)(=O)c1ccc(Cl)c(C(=O)NCc2ccc3c(c2)OCO3)c1	i	0.92	106	-0.1	-1	3	92
O=C1Nc2ccccc2/C1=N\c1sc2c(c1C(=O)Nc1ccccc1)CCCC2	i	1	85	-4.3	1	-119	104
Cc1cccc(OC(=O)c2ccc3nccnc3c2)c1	i	0.95	106	-2.5	-12	43	100
COc1ccc(NC(=S)NNC(=O)Cn2nc(C(F)F)cc2C(F)F)cc1	i	0.97	48	-1.4	3	6	116
O=C(c1cn(-c2ccccc2)nc1-c1cccs1)N1CCN(c2ccccc2)CC1	i	0.9	106	-2.9	0	14	74
Cc1ccc(-c2csc3nc(C(C)C)oc(=O)c23)c(C)c1	i	0.94	103	/	/	/	/
O=C1OCC2=C1C(c1ccc(F)cc1)c1cc3c(cc1N2)OCO3 (configuration not stated)	i	0.67	112	/	-6	-145	8
Cc1cc(Cl)ccc1OCCCC(=O)OCC(=O)c1c(N)n(C)c(=O)n(C)c1=O	i	0.87	100	/	/	/	/

Next results follow.
SMILES	HSV augment	HSV augment primary fold	RGS16-Gao HTS	GALR2 ag	PKD1 inh	INS promoter inh	INS promoter inh cell count
CN1CCN(C(=O)c2ccc3c(=O)n(CCc4ccccc4)c(=S)[nH]c3c2)CC1	/	/	/	-0.7	-4	-400	57
CCOc1ccc(-c2nc(-c3cccnc3)no2)cc1	i	0.95	97	0.8	-1	29	138
CC1CCCC(C)N1CC(O)COCC1COc2ccccc2O1 (configuration not stated)	i	0.85	101	-2.0	15	/	/
Oc1ccc(/C=N/n2c3ccccc3c3ccccc32)cc1	i	0.99	98	-1.9	-6	44	64
O=C(NC(=O)c1c(Cl)cccc1Cl)Nc1ccc(Oc2cccnc2)nc1	i	1.2	105	/	/	/	/
COc1ccc(NS(=O)(=O)c2cccc(-c3nnc4n3CCCCC4)c2)cc1	i	0.9	93	-2.5	-3	13	118
O=c1c(Cl)c(N2CCN(S(=O)(=O)c3ccccc3)CC2)cnn1-c1ccccc1	i	0.82	103	-0.6	-5	40	90
O=C(NCc1ccc(F)cc1)c1ccc(CS(=O)(=O)Cc2ccc(F)cc2)o1	i	1	92	-0.8	-10	-22	39
CCC(c1nnnn1Cc1ccc(F)cc1)N1CCN(C)CC1 (configuration not stated)	i	1	99	/	-5	/	/
CCOc1cc(N2CCOCC2)c(OCC)cc1NC(=O)CCC1CCCC1	i	0.98	93	-1.4	2	/	/
CCOc1ccccc1N(CC(=O)Nc1ccccc1C(=O)OC)S(C)(=O)=O	i	0.76	100	-0.3	0	/	/
Cn1ncc(S(=O)(=O)Cc2ccccc2)c(Cl)c1=O	i	1.1	55	/	/	/	/
COc1ccc(S(=O)(=O)N(C)CC(=O)Nc2ccccc2C(F)(F)F)cc1	i	0.82	103	-1.4	-4	14	122
O=C(Oc1ccc(/C=N/Nc2nc(N3CCCCC3)nc(N3CCCCC3)n2)cc1)c1ccco1	i	0.93	106	/	-5	2	178
CCOC(=O)c1cnc2nc(SC)nn2c1N	/	/	97	/	2	-100	81

Screening results deposited in PubChem BioAssay by several laboratories.
